# UUG fidelity – yeast start codon fidelity modulation; AID 602363; 0.13% of 350,000 active; S. cerevisiae UUG-firefly luciferase reporter, luminescence/redox ratio; activity score, % at 18.7 µM;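 active means replicate mean at a twofold rise or more, about +100% in these data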;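 further: firefly luciferase made from a UUG start codon reports start codon fidelity; reporter light over untreated wells divided by growth signal over untreated wells; some hits fall short of that in this replicate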
# PABP polyA inh – blocks human PABP binding to poly(A) RNA; P11940; fluorescence polarization; inhibition, % at 35 µM; 1% of 290,000 active; AID 2014;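 active means 50% or more with normal probe brightness, or confirmed in later tests; inconclusive means above 50% with abnormal brightness, or retests that disagree; inactive means below 50% or failed in later tests; about a fifth of its hits are not listed in these tables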;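 further: calls also rest on retests at 20 µM and on dose response follow-up; controls were probe without protein and protein plus probe with vehicle; some compounds called inactive have numbers as strong as hits; many hits fall short of the cut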
# Target sequence (P11940 whole entry, looked up): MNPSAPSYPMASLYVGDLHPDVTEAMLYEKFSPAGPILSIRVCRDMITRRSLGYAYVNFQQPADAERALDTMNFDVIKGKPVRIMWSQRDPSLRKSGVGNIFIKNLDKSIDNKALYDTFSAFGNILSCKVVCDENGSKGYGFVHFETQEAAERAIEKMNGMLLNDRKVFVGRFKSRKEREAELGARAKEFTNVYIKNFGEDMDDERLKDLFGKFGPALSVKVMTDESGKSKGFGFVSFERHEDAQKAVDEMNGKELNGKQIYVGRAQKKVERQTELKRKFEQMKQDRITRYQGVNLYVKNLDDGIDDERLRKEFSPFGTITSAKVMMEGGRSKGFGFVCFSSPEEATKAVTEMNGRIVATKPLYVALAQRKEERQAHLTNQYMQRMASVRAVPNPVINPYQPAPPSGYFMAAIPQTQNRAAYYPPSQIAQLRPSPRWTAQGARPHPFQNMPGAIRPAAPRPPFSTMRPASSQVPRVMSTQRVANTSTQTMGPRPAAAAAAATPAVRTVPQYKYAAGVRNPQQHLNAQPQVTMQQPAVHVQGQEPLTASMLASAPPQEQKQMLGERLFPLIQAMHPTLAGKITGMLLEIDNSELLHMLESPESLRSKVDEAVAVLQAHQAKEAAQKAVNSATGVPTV
# Env fusion inh – inhibitors of HIV Env-mediated cell fusion; inhibition, % at 12.3 µM; HeLa-JRFL Env/CEM21 cell fusion, luciferase; 1.1% of 360,000 active;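 active means mean replicate inhibition score of at least 50 and every replicate individually at or above 50; inconclusive means only one of the two criteria met; inactive means mean below 50 and not all replicates reaching 50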;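 further: 0% = plate neutral controls and 100% = maraviroc near 300 nM; one replicate is shown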
# Rce1 inhib – yeast Ras-converting enzyme inhibition. 0.27% of 290,000 active. calls only. Q03530. yeast membranes, quenched prenylated peptide cleavage fluorescence;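 active means fall in fluorescence gain of 50% or more versus controls, with final raw signal at or below 3038400; inconclusive means same 50% fall but final raw signal above 3038400; inactive means fall in fluorescence gain under 50%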;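 further: plate controls were neutral control wells for no effect and wells lacking membranes for full effect; tested at 10 µM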
# Target sequence (Q03530 whole entry, looked up): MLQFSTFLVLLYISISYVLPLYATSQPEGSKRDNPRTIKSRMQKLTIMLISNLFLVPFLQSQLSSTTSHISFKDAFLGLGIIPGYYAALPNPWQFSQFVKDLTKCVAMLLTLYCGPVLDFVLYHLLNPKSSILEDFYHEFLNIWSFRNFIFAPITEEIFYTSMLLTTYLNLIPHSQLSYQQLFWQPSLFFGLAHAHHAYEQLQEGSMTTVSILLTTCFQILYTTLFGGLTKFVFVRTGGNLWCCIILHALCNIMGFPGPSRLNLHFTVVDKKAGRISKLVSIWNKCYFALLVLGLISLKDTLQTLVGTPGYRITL
# CSC inhib – blocks cancer stem cells; cancer stem cell-like cells viability, luminescence; inhibition, % at 7.5 µM; 1.1% of 300,000 active; AID 2717;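 active means mean at 75% or more and at least half the replicates too; inconclusive means mean and replicates disagree; tested in HMLE shEcad cells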;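 further: 0% = median of negative and 100% = median of positive control wells; the first replicate is given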
# eIF4H inh – inhibitors of RNA binding by human eIF4H; Q15056; eIF4H fluorescence polarization binding assay; inhibition, % at 35 µM; 0.94% of 290,000 active; AID 2012;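 active means 50% or more with normal probe brightness, or confirmed in later tests; inconclusive means above 50% with abnormal brightness, or retests that disagree; inactive means below 50% or failed in later tests; about a fifth of its hits are not listed in these tables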;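 further: calls also rest on retests at 20 µM and on dose response follow-up; 0% = protein and probe with vehicle and 100% = probe without protein; strong numbers were not always called active; many hits fall short of the cut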
# MT1-MMP act inh – inhibitors of human MT1-MMP activation | P50281 | HT1080 RFP-PRO-GFP cells, GFP/RFP ratio fluorescence, overnight; percent of plate control window, DMSO zero | GFP/RFP ratio change, % at 20 µM | 0.061% of 360,000 active | AID 651647;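 active means GFP/RFP ratio change of at least 30% with cell ATP level not reduced by more than half and red fluorescence within 50% of control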; further: strong numbers were not always called active
#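 Assay system: HT1080 RFP-PRO-GFP cells. Benchmarks: DMSO vehicle wells and RFP-L50D-GFP reporter cell wells. Times: overnight cell settling, then overnight compound exposure, 37 °C, 5% CO2. Compound: 20 µM single dose, 1% DMSO. Read-out basis: GFP/RFP fluorescence ratio.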
# MT1-MMP act inh RFP – further read-out of MT1-MMP act inh, marked with its call; RFP signal change, %; measured here: RFP expression control read;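 0 = vehicle wells; hits needed this value within 50% of zero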
# An asterisk follows results filed as active; i = inactive; ? = inconclusive; / = no result given; + = active, no number.
SMILES,UUG fidelity,PABP polyA inh,Env fusion inh,Rce1 inhib,CSC inhib,eIF4H inh,MT1-MMP act inh,MT1-MMP act inh RFP
CC1=NOC(=O)/C1=C\c1ccc(-c2cc(Cl)ccc2Cl)o1,-9.0,10.3,/,i,87.0*,12.4,-5.4,-0.2
Cc1cc(NC(=O)c2cccnc2)ccc1NC(=O)c1cc2ccccc2o1,-12.4,-4.9,-1.1,i,-4.5,-13.4,-5.9,-4.4
Cc1ccccc1-n1c(O)c(/C=N/N2CCCCC2c2cccnc2)c(=O)[nH]c1=O (stereo not drawn),/,1.3,14.7,/,-5.7,-3.1,/,/
COC(=O)CSc1nc2c(c(-c3ccco3)c1C#N)CCCC2,-7.6,33.1,/,i,1.4,12.6,-6.6,-6.0
COc1ccccc1N=CC=C1OC(C)(C)C(C)(C)O1,/,-11.5,17.9,i,3.1,2.6,-3.2,-1.5
C=CCn1c(SCC(=O)Nc2ccccc2C)nnc1-c1ccncc1,-6.1,3.7,/,i,-20.3,4.2,-1.5,-0.8
CC(CCc1ccccc1)NC(=O)C(=O)NCCc1ccccc1 (stereo not drawn),/,-6.1,3.3,i,-1.8,-2.5,1.7,3.4
Cc1ccc(N2CC(C(=O)Nc3nnc(SCC(N)=O)s3)CC2=O)cc1 (stereo not drawn),163.9*,3.1,-3.9,i,-5.4,-14.0,-0.3,3.9
CCN1CCN(c2ncc(C(=O)Nc3cc(Cl)c(OC)cc3OC)c3ccccc23)CC1,/,-0.9,-11.9,i,/,16.7,-3.0,-0.6
CCc1ccc(NC(=O)CCS(=O)(=O)c2ccc(Cl)cc2)cc1,-16.8,1.6,24.2,i,-11.5,-5.9,1.6,-2.3
COC(=O)Nc1nnc(COc2cccc(C)c2)s1,/,-9.8,9.1,i,-13.7,-1.1,-0.4,3.8
COc1cccc(C(=O)Nc2cc(NC(=O)c3cccs3)ccc2C)c1,-7.3,-7.9,17.2,/,0.7,-13.4,4.4,0.2
CC(=C\c1ccccc1)/C=C1/SC(=S)N(CCC(=O)O)C1=O,20.6,14.9,6.8,i,-4.1,-3.4,5.7,9.8
Cc1ccc2cccc(SCC(=O)N3CCOCC3)c2n1,-21.1,-10.6,/,i,-8.1,-5.5,1.8,4.2
O=C(Nc1ccc(N2CCOCC2)c(Cl)c1)c1cc2ccccc2o1,2.1,-4.9,/,+,-6.8,1.6,0.4,-12.6
CN(C)S(=O)(=O)c1cccc(NC(=S)N/N=C/C(=O)c2ccccc2)c1,-16.1,7.9,/,i,/,17.9,4.8,2.4
CC1(c2ccccc2)NC(=O)N(CCN2C(=O)c3ccccc3C2=O)C1=O (stereo not drawn),0.1,-2.3,-63.3,i,0.3,-4.3,0.9,4.0
CCOC(=O)COn1c(=O)c(-c2ccc(F)cc2)[n+]([O-])c2ccccc21,-21.1,1.1,-31.3,i,-2.7,-8.2,-1.1,6.4
O=C(Nc1ccc(F)cc1F)N1CCCC(c2nc(-c3ccc(F)cc3)no2)C1 (stereo not drawn),/,-10.8,22.6,i,-0.3,-9.9,-2.2,-3.3
Cn1c(Cc2ccccc2)nnc1SCC(=O)Nc1ccccc1N1CCOCC1,-2.5,-2.5,12.9,i,-8.9,-5.6,0.1,2.4
O=C(Cc1ccc([N+](=O)[O-])cc1)NCc1ccncc1,/,2.2,-5.0,i,3.5,-7.4,2.2,-0.3
CC(C)CN(C(=O)CSc1nc2ccccc2c(=O)n1C)C1CCS(=O)(=O)C1 (stereo not drawn),17.5,/,/,/,3.1,/,-7.3,-1.6
Cn1cccc1CC(=O)NNC(=S)NC(=O)c1ccccc1Br,-21.1,-9.2,6.6,i,-8.1,25.2,-0.1,4.5
CCCc1cc(=O)[nH]c(SCC(=O)Nc2cc(C)on2)n1,/,1.5,-1.3,i,-3.4,-5.8,-0.3,2.5
OC1(Cc2cc(-c3ccccc3)no2)CCN(CCCc2ccccc2)CC1,-16.3,-7.6,5.7,i,13.5,-7.5,1.4,1.5
CCOc1ccc(N2C(=O)C3CCCN3C2=S)cc1 (stereo not drawn),-36.7,/,/,/,2.6,/,-2.1,-0.1
O=C1COc2ccc(C(=O)COC(=O)/C=C/c3ccc(Br)o3)cc2N1,-4.0,/,/,i,-1.9,/,-2.1,0.2
Cc1cccc(Nc2nc(OCC#N)nc(N(C)C)n2)c1,8.7,-0.7,3.9,i,-18.6,3.9,-0.4,-5.6
COc1ccc(CN(C(=O)COc2ccc(C)c(C)c2)C2CCS(=O)(=O)C2)cc1OC (stereo not drawn),-5.8,-8.6,23.9,i,/,-13.9,3.6,6.9
OCCN(Cc1ccccc1)CC(O)COc1ccc(-c2ccccc2)cc1 (stereo not drawn),/,3.3,5.2,/,32.2,-0.6,-1.6,-5.7
COc1ccc(-c2ncccc2OC(=O)C23CC4CC(CC(C4)C2)C3)cc1,0.5,1.1,2.2,i,-17.5,-6.6,1.2,-0.5
Cc1cc2c(cc1C)N(Cc1ccccc1)C1=NCCCN12,/,-5.4,13.3,i,-19.3,-9.5,7.7,-1.3
COc1ccc(Cc2nnc(NS(=O)(=O)c3ccc(NC(C)=O)cc3)s2)cc1,0.0,-8.1,-19.1,i,-21.0,-10.8,1.1,7.7
CCCCc1ccc(NC(=O)CSc2nc(=O)n(CCN(C)C)c3c2CCC3)cc1,-18.6,/,7.3,i,-8.6,/,5.4,-0.6
CCOc1ccc2oc(C(=O)Nc3ccc(C)cn3)c(C)c2c1,-2.8,/,0.5,/,/,/,4.1,4.8
O=C(Cc1cccc2ccccc12)Nc1ccccc1,/,/,7.4,i,14.5,/,0.9,-0.2
COc1ccc([C@H]2CC(=O)C=C(c3cccc(C(C)C)c3)C2)cc1,-14.1,/,-5.8,/,30.2,/,-0.5,-7.7
NC1=NC[C@H](Cc2ccccc2)N1CC1CCCCC1,-24.7,/,-5.4,i,-6.3,/,-2.1,1.7
CCOC(=O)C1=C(C)OC(N)=C(C#N)C1c1cc2c(cc1[N+](=O)[O-])OCO2 (stereo not drawn),/,-7.3,-3.5,+,8.1,?,2.5,2.7
O=C(NCc1ccccn1)C(=O)Nc1nc(-c2ccccc2)cs1,-18.7,9.2,-51.5,i,-6.3,10.6,4.3,-1.1
O=C(N/N=C/c1ccc(OCc2ccccc2)cc1)c1ccco1,-10.7,-4.9,2.3,i,5.9,12.7,2.5,-1.9
CCN(CC(=O)Nc1c(F)cccc1F)C(=O)COc1ccc2c(C)cc(=O)oc2c1,/,7.3,11.7,/,-6.1,2.4,-0.3,0.2
COc1cc(C(CCN2CCCC(C)C2)c2c(OC)cc(OC)c3c(-c4ccccc4)cc(=O)oc23)cc(OC)c1OC (stereo not drawn),7.5,1.2,/,i,14.6,-8.4,4.8,1.8
CCN1C=C(Cc2ccc(F)cc2)C2=C(C1)C(c1ccc(F)cc1)C(C#N)=C(N)O2 (stereo not drawn),-2.5,36.3,/,i,3.3,41.9,-6.8,0.9
Cn1c(=O)c2ccccc2n(Cc2ccccc2F)c1=O,-10.7,0.9,/,i,-13.6,-7.2,-3.9,-9.6
Nn1c(SCC(=O)Nc2ccccc2)nnc(Cc2ccccc2)c1=O,/,/,2.6,i,-13.7,/,-1.2,-2.2
O=C(COC(=O)C1CCN(/C=C/C(=O)C(F)(F)F)CC1)Nc1cccc(F)c1,/,-1.0,-7.1,i,/,2.6,3.9,5.8
Cc1cc(C)nc(NC(=O)C(c2ccccc2)c2ccccc2)c1,/,5.4,/,i,11.2,3.6,-32.7,-23.6
Cc1ccc(S(=O)(=O)NCC(=O)OCc2cc(=O)oc3c(C)c(C)ccc23)cc1C,-19.4,/,-55.5,/,-5.0,/,-2.4,0.0
N#Cc1cccc(C(=O)Nc2cc(S(=O)(=O)N3CCOCC3)ccc2N2CCCC2)c1,1.8,/,0.7,/,-1.2,/,-3.9,2.3

# A draw from above in order of heavy-atom count, highest first:
SMILES,UUG fidelity,PABP polyA inh,Env fusion inh,Rce1 inhib,CSC inhib,eIF4H inh,MT1-MMP act inh,MT1-MMP act inh RFP
CCN(CC(=O)Nc1c(F)cccc1F)C(=O)COc1ccc2c(C)cc(=O)oc2c1,/,7.3,11.7,/,-6.1,2.4,-0.3,0.2
Cc1ccc(S(=O)(=O)NCC(=O)OCc2cc(=O)oc3c(C)c(C)ccc23)cc1C,-19.4,/,-55.5,/,-5.0,/,-2.4,0.0
CCOc1ccc2oc(C(=O)Nc3ccc(C)cn3)c(C)c2c1,-2.8,/,0.5,/,/,/,4.1,4.8

# (list continues)
SMILES,UUG fidelity,PABP polyA inh,Env fusion inh,Rce1 inhib,CSC inhib,eIF4H inh,MT1-MMP act inh,MT1-MMP act inh RFP
CN(C)CC/C=C1/c2ccccc2Sc2c(O)cc(Cl)cc21,-2.8,3.5,/,i,-6.2,27.2,-5.3,-0.2
Cc1ccc2c(c1)N(Cc1cccc(C#N)c1)C=NS2(=O)=O,-22.3,-4.5,8.8,i,/,-5.0,-1.0,1.6
CCc1ccc(N(CC(=O)NC(C)(C)C)C(=O)CNC(=O)c2cccs2)cc1,-7.4,12.0,12.6,i,-9.5,0.6,1.0,-1.1
C[C@@H]1CN([C@H](C)CO)C(=O)c2cc(NC(=O)Nc3ccc(C(F)(F)F)cc3)ccc2O[C@H]1CN(C)S(=O)(=O)c1ccccc1,2.3,/,22.4,/,60.4,/,-10.2,-15.9
O=C(Nc1ccc(Cl)c(C(F)(F)F)c1)C1Cc2c(-c3ccccc3)ccnc2O1 (stereo not drawn),-6.6,/,17.5,/,/,/,6.2,-4.0
Cc1ccc(S(=O)(=O)Cc2ccc(C(=O)NCCc3ccccc3)o2)cc1,18.6,4.3,-6.9,i,-8.4,3.8,-3.0,-0.6
CCn1c(-c2nonc2NC(=O)c2ccccc2)nc2ccccc21,-9.8,6.1,-5.9,i,/,-3.8,3.6,0.1
NC(N)=NC(N)=Nc1cccc(Cl)c1,5.5,1.0,-2.3,i,-12.8,-4.9,0.6,-1.8
CCOc1ccc(N=C2NC(=O)SC2CC(=O)OC)cc1 (stereo not drawn),/,6.7,4.2,i,-3.0,1.6,4.4,-0.5
CC(C)CNS(=O)(=O)c1ccc(CCC(=O)N2CCN(Cc3ccccc3)CC2)cc1,-7.0,-6.7,49.0,i,-11.9,-5.3,2.2,1.0
CCOC(=O)C1CCCN(C(=O)c2cc(S(=O)(=O)N3CCCCC3)ccc2C)C1 (stereo not drawn),-9.2,1.0,10.0,i,-4.7,5.8,-0.8,-7.1
COc1ccc(C(=O)NC(=S)NCc2cccnc2)cc1OC,-13.7,0.6,-1.8,/,-15.1,-2.6,0.3,-1.0
COc1cc(NC(=O)CCc2nnc3ccc(N4CCC5(CC4)OCCO5)nn23)cc(OC)c1,-17.1,-1.7,1.0,i,6.4,-3.0,1.0,4.2
C/C(=N\NS(=O)(=O)c1ccccc1)c1cccc(NC(=O)c2cccc(Cl)c2)c1,-9.4,-0.4,-19.4,i,?,-10.0,0.5,-0.7
CCOc1ccc(NS(=O)(=O)c2ccc(OCC(=O)NCc3ccncc3)cc2)cc1,-22.8,-1.7,5.7,i,-2.1,-6.4,-1.2,0.5
CCOc1ccccc1/C=C(/C#N)C(N)=O,-22.0,0.8,6.3,i,7.7,-4.5,-2.9,-0.8
CN(C)C(=O)CSc1nnc(Cc2ccc([N+](=O)[O-])cc2)o1,-8.2,-10.2,/,i,-2.0,-9.1,-0.1,3.6
Cc1ccccc1NC(=O)C(C)c1cccc(C(=O)c2ccccc2)c1 (stereo not drawn),/,-5.0,/,i,-2.9,1.1,-0.9,-4.7

# Screening results from PubChem.

# Compounds as they come; any-hit rate near 3%.
